# PINK1 expr mod = changes PINK1 expression | PINK1 immunofluorescence, high-content cytometry, 24 h | Potency, µM (series often up to 76.6 µM), for inactives: top-dose activation (PINK1 increase), usual class: activators | 410,000 compounds, 0.2% hits | AID 624263; active = well fitted activation curve with a large enough effect; inconclusive = small, poorly fitted or top-dose-only effect; inactive = flat fitted curve, though single readings scatter; cell line not stated here;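 note: potency is the fitted concentration of half-maximal effect; % of control where 0% means no effect; nearly all actives have a fitted effect of over 65% in size; a mitochondrial uncoupler was the plate control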
#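 Fluorescence from anti-PINK1 antibody, together with nuclear and cell stains, was scanned on a laser-scanning cytometer. Before staining, stable-line cells were incubated 24 hours with compounds at 5 concentrations; primary antibody 12 h at 10 degrees C.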
# Sfp inh = blocks B. subtilis Sfp PPTase activity. Q9F4F7. Biochemical Sfp PPTase activity, qHTS. Potency, µM, for inactives: max response, negative = inhibition, hits mostly inhibitors. 310,000 compounds, 3.5% hits. AID 1490; active = well fitted inhibition curve with a large enough effect; inconclusive = small, poorly fitted or top-dose-only effect, or another doubt; inactive = no such curve, though single readings can be large or run the other way;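 note: the enzyme is Sfp with the accession as filed and its product quenches rhodamine fluorescence; potency is the fitted concentration of half-maximal effect; 0% = enzyme reaction without inhibitor and -100% = no enzyme wells; top concentration of the series not given in the record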
#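 Step 1, compound plus 15 nM Sfp-PPTase, 15 min, room temperature. Step 2, add rhodamine-CoA (5 uM) and BHQ-2-YbbR (12.5 uM). Step 3, read 525/598 nm fluorescence at 0 and 30 min.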
# TRPV1 potentiator = enhances activation of the human vanilloid receptor TRPV1; 320,000 compounds, 0.02% hits; AID 540277; potentiation, % at 8.33 µM; TRPV1-expressing cells, Fluo-8 calcium influx, capsaicin EC20 potentiation; host cell line not named in the record; control for the full effect not named in the record; Q8NER1; active means potentiation above 80%; inconclusive means 30% to 80%; inactive means below 30%; note: 0% is about no effect
# Target sequence (Q8NER1 whole entry, looked up): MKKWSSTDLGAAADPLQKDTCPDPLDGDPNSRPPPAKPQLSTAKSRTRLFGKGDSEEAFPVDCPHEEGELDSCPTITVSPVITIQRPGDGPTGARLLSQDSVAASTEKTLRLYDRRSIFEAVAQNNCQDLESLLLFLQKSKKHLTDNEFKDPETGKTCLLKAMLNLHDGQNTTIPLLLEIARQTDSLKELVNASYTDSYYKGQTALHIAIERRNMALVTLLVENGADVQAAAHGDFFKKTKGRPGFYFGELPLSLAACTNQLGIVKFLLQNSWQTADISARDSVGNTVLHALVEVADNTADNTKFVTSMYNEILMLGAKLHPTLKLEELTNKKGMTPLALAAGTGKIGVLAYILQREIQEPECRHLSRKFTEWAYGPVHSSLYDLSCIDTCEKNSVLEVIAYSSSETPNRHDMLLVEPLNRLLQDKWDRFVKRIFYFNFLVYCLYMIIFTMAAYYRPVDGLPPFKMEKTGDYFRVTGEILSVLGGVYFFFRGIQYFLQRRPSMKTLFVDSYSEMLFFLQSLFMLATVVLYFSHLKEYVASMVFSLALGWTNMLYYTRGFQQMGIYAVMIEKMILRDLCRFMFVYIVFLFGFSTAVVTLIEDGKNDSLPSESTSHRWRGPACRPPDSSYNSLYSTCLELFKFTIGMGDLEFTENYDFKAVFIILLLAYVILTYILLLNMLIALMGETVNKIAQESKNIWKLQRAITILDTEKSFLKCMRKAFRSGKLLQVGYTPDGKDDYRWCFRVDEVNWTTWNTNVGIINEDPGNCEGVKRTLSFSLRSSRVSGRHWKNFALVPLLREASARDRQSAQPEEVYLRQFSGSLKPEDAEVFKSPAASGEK
#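 Cells expressing TRPV1 were dye-loaded with Fluo-8 and read kinetically: 10 s baseline, 3 min after compound (agonist portion), then 2 min after EC20 capsaicin (allosteric enhancer portion). Calcium-bound dye fluorescence at 480/520 nm.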
# Menin MLL FP FL = menin-MLL binding inhibition, fluorescein peptide; 290,000 tested, under 10 active; FP activity change, % at 61.4 µM; Fluorescence polarization, fluorescein-MLL peptide displacement from menin; inconclusive = falling polarisation curve, or a change in total fluorescence; inactive = total fluorescence flat and polarisation flat or rising; no compound was filed as active; the % refers to the polarisation; negative = inhibition;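 note: % of control where 0% means no effect; inhibitors lower the polarisation; unlabelled MLL peptide was the positive control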
# TRPML1 ag = activates the human TRPML1 channel | Q9GZU1 | TRPML1-expressing cells, Ca2+ dye fluorescence, FDSS; host cell line not named in the record; reference of the full effect not given here | activation, % (concentration not given with the values) | 410,000 compounds, 0.12% hits; in the data active = activation above about 50%; inconclusive = about 30% to 50%; inactive = below about 30%; note: 0% is about no effect; the text of the record puts the active cut at 80%
#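 Kinetic FDSS Ca2+ read in Tet-induced TRPML1-DL cells (ABD Ca8 dye plus quencher, 45-90 min RT loading): baseline, then compound, then 110 s agonist window; EC80 agonist 54-4 at 4uM final added afterwards for a 110 s antagonist window.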
# ClpP mod = qHTS Assay for Activators of ClpP; purified B. subtilis ClpP, FRET peptide cleavage, 20 min; Potency, µM (top dose mostly 57.5 µM), without a hit: at the top dose activity change, negative = active; ATP-dependent Clp protease proteolytic subunit (Bacillus subtilis (strain 168)), P80244; 340,000 compounds, 1.9% hits; AID 651965, 2013; active = well fitted falling curve with a large enough effect; inconclusive = small, poorly fitted or top-dose-only effect; inactive = no such curve, though single readings can be large or run the other way; note: potency is the fitted concentration of half-maximal effect; the source files actives as falling curves though it sought activators and does not explain the sign; nearly all actives have a fitted effect of over 65% in size; many hits overshoot -100%
# Target sequence (P80244 whole entry, looked up): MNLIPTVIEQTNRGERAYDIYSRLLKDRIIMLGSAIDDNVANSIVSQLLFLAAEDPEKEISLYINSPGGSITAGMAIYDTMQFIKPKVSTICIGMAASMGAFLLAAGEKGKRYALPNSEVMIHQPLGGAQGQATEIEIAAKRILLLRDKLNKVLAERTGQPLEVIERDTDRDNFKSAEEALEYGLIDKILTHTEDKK
#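 ClpP 10 microg/mL final, pH 8 Tris/KCl buffer with BSA, glycerol, Tween-20; compound pinned in; FRET-FV substrate; RT 20 min; Ex320/Em430; ΔFRET vs ADEP 5.8 microM, DMSO, no enzyme.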
# TRPML1 inh = inhibitors of human TRPML1 channel; AID 624415; 390,000 compounds, 0.02% hits; TRPML1-inducible cells, Ca2+ dye fluorescence, FDSS; stronger effect = lower value; inhibition of EC80 agonist-evoked calcium signal; activity change, negative = inhibition, % (no concentration beside the values); in the data active means activity change below about -50%; inconclusive means about -30% to -50%; inactive means above about -30%;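 note: stimulus is agonist 54-4 at its EC80 concentration; % is set by controls: 0 for no effect and ±100 for the full control effect; compound concentration not given in the record; the text of the record puts the active cut at -80%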
#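 Tet-induced TRPML1-DL cells loaded with Ca8 no-wash calcium dye were read kinetically on FDSS. Compound addition was followed by EC80 agonist 54-4 (4 uM final); inhibition was read over 110 s.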
# Starred values were filed as active, the others as inactive; ? = inconclusive; · = no result given; [ ] = dose if it differs, or a comment.
SMILES,PINK1 expr mod,Sfp inh,TRPV1 potentiator,Menin MLL FP FL,TRPML1 ag,ClpP mod,TRPML1 inh
COC(=O)c1sccc1NC(=O)CC1C(=O)NCCN1C(=O)Nc1ccc(C(F)(F)F)cc1 (stereo not given),7.0%,-2%,-1,-1.9,0.9,1.0%,4
CCOC(=O)C1=C(CN2CCc3ccccc32)NC(=O)NC1c1cc(C)ccc1C (stereo not given),4.4%[38.3 µM],·,·,·,0.5,-0.5%,8
CN1CCN(c2ccc(S(=O)(=O)N3CCCCC3)cc2NC(=O)CSCc2ccccc2)CC1,0.7%,-7%,1,-1.5,-0.4,1.7%,-3
CCn1c(SCC(=O)Nc2ccc(C)cc2Br)nnc1-c1nonc1NC(C)=O,0.7%,·,·,·,0.8,0.8%,-8
CN1CCN(c2ccc(S(=O)(=O)N3CCOCC3)cc2NC(=O)Cc2ccccc2F)CC1,0.4%,·,-11,·,-0.6,0.6%,-11
CCOc1ccccc1NC(=O)Cn1c(=O)ccc2cc(S(=O)(=O)N3CCCC3)ccc21,-0.8%,·,·,·,1.9,-13%,-10
Cc1ccc(NC(=O)C2CCCN(S(=O)(=O)c3cn(C(C)C)cn3)C2)c(C)c1 (stereo not given),0.8%,·,·,·,-0.8,-1.4%,-6
CCCN(Cc1cc2cccc(C)c2[nH]c1=O)C(=O)c1cccc(Cl)c1,-2.0%,·,·,·,0.5,?,-10
O=C(c1[nH]c(C(F)(F)F)nc1-c1ccccc1)N1CCN(c2ccccn2)CC1,5.1%,·,·,·,0.0,-15%,·
CSc1ncccc1C(=O)OCC(=O)N1CCN(C(=O)c2ccco2)CC1,-0.3%,·,·,·,-0.2,-0.4%,-5
CN(Cc1ccco1)C(=O)CSc1nc(C2CC2)n(-c2ccccc2)n1,-1.3%,·,-15,·,-0.6,-1.5%,12
COc1ccccc1N1CCN(CCCn2c(=S)[nH]c3ccccc3c2=O)CC1,2.6%,9%,6,1.2,1.1,-1.6%,23
CC(C)(C)C(=O)NNC(=O)CCCOc1ccc(Cl)cc1Cl,3.0%[38.3 µM],14%,0,0.9,-0.1,0.2%,-9
O=S(=O)(c1ccccc1)N1CC2CC(Br)C(Br)CC21 (stereo not given),2.0%,·,·,·,-0.3,-3.3%,-5
COC(=O)C(C)Sc1nc2c(c(=O)[nH]c(=O)n2C)n1CCCc1ccccc1 (stereo not given),-2.0%,-19%,11,1.1,0.3,-1.5%,-24
COc1cc(-c2nnc(CSc3nnc4nc(C)cc(C)n34)o2)cc(OC)c1OC,0.2%,20%,5,12,0.1,-21%,-2
CC(C)Nc1nnc(SC(C)C(=O)Nc2ccc(N3CCOCC3)cc2)s1 (stereo not given),-0.7%,·,2,·,-0.5,1.6%,2
COc1ccc(-n2nnc3c(=O)n(C/C=C/c4ccccc4)cnc32)cc1,?,14%,9,1.6,0.2,-8.9%,-7
COc1ccc(CNC(=O)C(OC(C)=O)c2ccccn2)cc1 (stereo not given),-1.4%,3%,8,-2.2,0.4,-0.2%,-15
CC(C)N(Cc1ccccc1)C(=S)NC(=O)C1(C)CC1(Cl)Cl (stereo not given),1.5%,20%,-4,1.9,1.2,·,1

# The final 5 entries of the part before lead into the next.
SMILES,PINK1 expr mod,Sfp inh,TRPV1 potentiator,Menin MLL FP FL,TRPML1 ag,ClpP mod,TRPML1 inh
COc1cc(-c2nnc(CSc3nnc4nc(C)cc(C)n34)o2)cc(OC)c1OC,0.2%,20%,5,12,0.1,-21%,-2
CC(C)Nc1nnc(SC(C)C(=O)Nc2ccc(N3CCOCC3)cc2)s1 (stereo not given),-0.7%,·,2,·,-0.5,1.6%,2
COc1ccc(-n2nnc3c(=O)n(C/C=C/c4ccccc4)cnc32)cc1,?,14%,9,1.6,0.2,-8.9%,-7
COc1ccc(CNC(=O)C(OC(C)=O)c2ccccn2)cc1 (stereo not given),-1.4%,3%,8,-2.2,0.4,-0.2%,-15
CC(C)N(Cc1ccccc1)C(=S)NC(=O)C1(C)CC1(Cl)Cl (stereo not given),1.5%,20%,-4,1.9,1.2,·,1
CC(O)(c1ccc(F)c(F)c1)c1nc(-c2ccc(Cl)cc2)cs1 (stereo not given),1.9%,·,·,·,0.9,-1.5%,3
NC(c1ccccc1)c1csc(Nc2ccc(S(N)(=O)=O)cc2)n1 (stereo not given),-0.6%,·,·,·,-0.1,-8.2%,·
CN1CCN(S(=O)(=O)c2ccc(NC(=O)C3CCCO3)cc2)CC1 (stereo not given),?,17%,4,4.2,0.0,-0.6%,9
CC(=O)N1CCN(c2ccc(NCc3ccc(C)s3)cc2)CC1,-0.6%,50µM*,-6,0.2,0.7,-1.9%,-24
CCc1ccc(/C=N/NC(=O)Cc2cccn2C)cc1,2.3%,16%,-36,6.4,0.1,·,-5
COc1cccc2ccc(/C=C/c3ccc4c(c3)OCO4)nc12,0.9%,·,·,·,-1.1,?,·
O=C(OCCO)c1cc(Cl)c(C(=O)OCCO)cc1Cl,-0.9%,23%,3,-3.1,-0.5,-1.2%,-8
COc1ccc2c(c1)CC[C@@H]1[C@@H]2CC[C@]2(C)[C@@H](C(=O)O)C[C@@H]12,0.8%,·,0,·,-0.3,0.0%,11
Cc1nn(-c2ccccc2)cc1/C=N/O,-0.8%,6%,17,3.0,-0.7,-2.0%,0
Cc1ccc(C)c(NC(=O)C(OC(=O)c2ccc(C)s2)c2ccccc2)c1 (stereo not given),3.9%,-28%,15,-1.3,2.4,-1.9%,18
CC(=O)N1CCc2cc(NC(=O)C3(C)CCN3Cc3ccccc3OC(F)F)ccc21 (stereo not given),2.0%,·,·,·,-1.1,0.6%,·
Cc1nc2nc(SCC(=O)Nc3cccc(F)c3)[nH]c2cc1Br,8.2%,8%,18,2.4,-0.8,-2.1%,5
O=C(Nc1ccccc1N1CCCC1)c1cccc(-c2cc3ccccc3oc2=O)c1,8.0%,5%,9,-1.1,0.0,?,26
O=C(c1cc2ccc3cccnc3c2[nH]1)N1CCN(c2cccc(Cl)c2)CC1,0.1%,·,·,·,-0.3,-6.8%,-12
O=C(CCc1nc(-c2ccccc2Cl)no1)NCC1CCCO1 (stereo not given),1.6%,1%,?,-1.7,-0.1,-0.5%,-8
COc1ccc(NC(=O)c2ccc3c(c2)OCO3)cc1[N+](=O)[O-],8.5%,4%,-14,0.0,-0.6,·,11
O=C(CCN1CCCCC1)Nc1ccc(Br)cc1,-2.9%,20%,-8,6.5,1.4,-2.7%,15
O=C(CN1CCN(C(=O)CNC(=O)c2ccc3c(c2)OCO3)CC1)Nc1cccc(F)c1,1.1%,·,-10,·,-0.1,-21%,5
O=C(CSc1nccn1-c1ccc(Cl)cc1)Nc1nc2ccccc2s1,-3.9%,·,·,·,4.2,-1.7%,27
CC(C)=CC(=O)N1CCCc2ccccc21,8.7%[38.3 µM],5%,14,4.8,0.8,-3.1%,7
Cc1nnc(C)c2c(C)n(Cc3ccc4c(c3)OCO4)c(C)c12,0.4%,-8%,0,?,0.1,-5.4%,2
COc1ccccc1CNC(=O)CNC(=O)c1sc2ccccc2c1Cl,-0.6%,0%,3,7.0,2.8,-4.7%,2
Cc1nc(NCc2ccco2)c2c(C)c(C)sc2n1,15%[38.3 µM],-28%,17,5.6,1.5,0.5%,1
O=C(NCc1ccco1)c1ccccc1NC(=O)C1CC(=O)N(c2ccc(Cl)cc2)C1 (stereo not given),0.1%,12%,4,4.1,1.6,-6.1%,-5
C=CCn1c(SCC(=O)Nc2ccc(N3CCOCC3)cc2)nc2ccccc2c1=O,10%,30%[activator],-5,·,-0.6,-2.0%,29
Cc1cccc(NC(=O)CNC(=O)C(NC(=O)Cc2ccccc2)C(C)C)c1C (stereo not given),-0.2%,·,0,·,-0.6,-0.7%,0
Cc1ccc(C)c(NC(=O)C(c2ccccc2)N2CCN(CC(=O)NC3CC3)CC2)c1 (stereo not given),1.5%,·,-11,·,0.4,0.9%,-12
COc1ccc(NC(=O)CCCc2ccccc2)cc1OC,-0.2%,0%,-16,0.0,0.1,·,-23
Cc1onc(C(=O)NN)c1C(=O)Nc1ncc(C(F)(F)F)cc1Cl,3.9%,11%,?,-0.6,1.0,·,27
CCOCCCNc1nc2c(C)cccn2c(=O)c1/C=C1\SC(=S)N(CC(C)C)C1=O,4.9%,11%,-1,?,9.9,-3.1%,-8
COc1ccc(/C=N/NC(=O)c2cccc(NC(C)=O)c2)c(C(=O)O)c1OC,-1.7%,21%,-3,5.4,0.5,·,-12
CCCCN(C(=O)c1ccc(OC)c([N+](=O)[O-])c1)c1c(N)n(CCC)c(=O)[nH]c1=O,0.0%,14%,2,-1.6,2.6,·,12
C=CCn1nnc2sc3c(c2c1=O)CCC(C)C3 (stereo not given),-1.4%,-20%,-7,-2.4,2.5,-2.4%,-15
CC1(C(=O)NS(=O)(=O)c2ccc(Cl)cc2)CCN1C(=O)CC1CCCC1 (stereo not given),1.5%,·,·,·,-0.5,0.3%,·
CCOc1c(C)cc2[nH]c(CCC(=O)O)nc2c1C,-0.7%,20%,3,3.5,1.5,-3.4%,29
COc1ccc(C(C(=O)NC2CCCC2)N(C(=O)c2ccco2)c2cc3c(cc2C(C)=O)OCO3)cc1 (stereo not given),2.0%,-12%,-2,0.8,1.5,3.2µM*,7
Clc1ccc(-c2nnnn2-c2ccc(Cl)c(Cl)c2)cc1Cl,-2.2%,-10%,25,-1.1,-0.6,-3.2%,6
COc1ccc(CCNC(=O)C2=CC=CN3CCS(=O)(=O)N=C23)cc1,-1.0%,·,6,·,-0.6,-21%,-7
Cc1ccc(N(CCC#N)C(=O)COC(=O)C2CCN(c3ccc(C(F)(F)F)cn3)CC2)cc1,0.6%,·,-18,·,-0.2,-12%,8
CC(C)C(c1nnnn1Cc1ccc(F)cc1)N1CCN(Cc2ccc3c(c2)OCO3)CC1 (stereo not given),1.3%,-2%,-4,-7.8,1.4,-0.4%,13
O=C(/C=C/c1cccs1)NCc1cccnc1,-0.7%,22%,-8,·,-0.4,35µM*,-10
CCC1CCC2(CC1)NC(=O)N(CC(=O)Nc1ccc(OC)cc1)C2=O (stereo not given),-1.3%,·,-9,·,-0.2,1.6%,2
